Bioassay records deposited in PubChem by Johns Hopkins Ion Channel Center.
KCNQ2 block: KCNQ2 channel blockers in CHO-K1 cells – cell-based, FluxOR thallium flux, B-score, primary screen (AID 2156); 20 min; active compounds read low; only compounds with negative scores are shown here; some inactives read as strong as hits; B-score at 10 µM; hit rate 1.1% among 310,000;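 active = fluorescence ratio B-score at most minus 3 library SDs, with starting brightness B-score within 2 library SDs, cut at about -5.5 in these data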
Target sequence (O88943 whole entry, looked up): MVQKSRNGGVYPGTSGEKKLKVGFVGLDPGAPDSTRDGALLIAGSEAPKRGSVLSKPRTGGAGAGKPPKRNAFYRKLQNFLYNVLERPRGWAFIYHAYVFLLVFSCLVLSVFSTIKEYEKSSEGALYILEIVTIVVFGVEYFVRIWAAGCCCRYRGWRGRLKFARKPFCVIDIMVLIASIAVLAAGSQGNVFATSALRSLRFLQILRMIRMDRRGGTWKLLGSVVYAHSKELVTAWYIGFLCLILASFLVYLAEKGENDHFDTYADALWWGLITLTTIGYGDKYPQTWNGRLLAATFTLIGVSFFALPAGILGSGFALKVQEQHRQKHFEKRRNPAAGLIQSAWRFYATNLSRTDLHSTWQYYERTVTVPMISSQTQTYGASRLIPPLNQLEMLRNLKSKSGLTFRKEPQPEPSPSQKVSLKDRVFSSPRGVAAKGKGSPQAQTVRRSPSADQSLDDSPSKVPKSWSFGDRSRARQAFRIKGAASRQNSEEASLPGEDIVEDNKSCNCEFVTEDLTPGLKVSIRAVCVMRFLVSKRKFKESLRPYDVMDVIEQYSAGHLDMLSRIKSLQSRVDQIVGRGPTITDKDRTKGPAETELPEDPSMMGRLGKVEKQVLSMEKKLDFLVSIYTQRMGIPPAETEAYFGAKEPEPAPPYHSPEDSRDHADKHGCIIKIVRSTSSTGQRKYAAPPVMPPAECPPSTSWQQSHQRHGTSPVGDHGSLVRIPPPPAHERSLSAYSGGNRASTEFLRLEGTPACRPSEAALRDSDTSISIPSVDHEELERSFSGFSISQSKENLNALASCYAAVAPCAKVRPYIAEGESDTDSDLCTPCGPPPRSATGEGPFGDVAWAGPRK
KCNQ2 block baseline: second read-out of KCNQ2 block, no call of its own (marks repeat the call); B-score; measured here: initial fluorescence intensity artifact check;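 brightness before thallium and not channel activity; 0 = typical well and far values either way flag optical interference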
* hit, by the source's call; i = inactive. These rows are one share of the data. The share of hits here may be higher or lower than overall.

The opening 4 records (preview)
No. | Structure | KCNQ2 block | KCNQ2 block baseline
1 | CC(=O)c1cccc(NC(=O)CCCOc2ccc(C)cc2)c1 | i | -0.15
2 | CC(C)N1CCc2c(sc(NC(=O)c3cc(-c4cccs4)nc4ccccc34)c2C(N)=O)C1 | -6.4* | -0.02*
3 | CCN(c1cccc(C)c1)S(=O)(=O)c1ccc2c(c1)NC(=O)CS2 | i | -1.7
4 | CCOC(=O)CSc1snnc1-c1ccccc1 | i | 0.06

The listing, from the start:
No. | Structure | KCNQ2 block | KCNQ2 block baseline
1 | CC(=O)c1cccc(NC(=O)CCCOc2ccc(C)cc2)c1 | i | -0.15
2 | CC(C)N1CCc2c(sc(NC(=O)c3cc(-c4cccs4)nc4ccccc34)c2C(N)=O)C1 | -6.4* | -0.02*
3 | CCN(c1cccc(C)c1)S(=O)(=O)c1ccc2c(c1)NC(=O)CS2 | i | -1.7
4 | CCOC(=O)CSc1snnc1-c1ccccc1 | i | 0.06
5 | O=c1[nH]c(-c2ccccc2)c(-c2ccccc2)nc1[N+](=O)[O-] | i | -0.34
6 | COC(=O)c1ccc(Cn2nnc3c(=O)[nH]c(C4CCN(S(=O)(=O)c5cc(C)ccc5C)CC4)nc32)cc1 | i | -0.38
7 | CCc1cccc(NC(=O)CCc2nc3sc4c(c3c(=O)[nH]2)CCCC4)c1 | i | -0.01
8 | CCOc1ccc(CSC(=N)N)cc1[N+](=O)[O-] | i | -0.24
9 | CC(C)[C@H](NC(=O)NCCc1ccc(Cl)cc1)C(=O)O | i | -1.1
10 | Cc1oc(-c2ccccc2F)nc1CS(=O)(=O)CC(=O)NCc1ccccc1Cl | i | 1.6
11 | COc1nc(NC23CC4CC(CC(C4)C2)C3)nc(OC)n1 | i | -2
12 | CC12CCC(=O)N1C(C(=O)Nc1ccccc1N1CCOCC1)CS2 (stereo not drawn) | i | -0.86
13 | Cc1ccc(NC(=O)CCS(=O)(=O)c2ccccc2)cc1S(=O)(=O)N1CCOCC1 | i | -0.35
14 | CSCCC(CO)NC(=O)OCc1ccccc1 (stereo not drawn) | i | -1.4
15 | Nc1ccnn1Cc1cccs1 | i | 1.5
16 | Cc1[nH]c2ccccc2c1CCNC(=O)c1ccc2c(c1[N+](=O)[O-])C(=O)c1ccccc1C2=O | i | -3.9
17 | Nc1nonc1C(=O)NCCNc1ccc([N+](=O)[O-])cc1 | i | 0.64
18 | COc1cccc(-c2nnc(NC(=O)c3cccc(F)c3)o2)c1 | i | 0.07
19 | CCO[C@@H]1OC(C(=O)N2CCN(Cc3ccc4c(c3)OCO4)CC2)=C[C@H](c2ccc(Br)cc2)[C@H]1CCCO | i | 0.28
20 | COc1ccc(NC(=O)C/C(C)=N/NC(=O)c2cccs2)c([N+](=O)[O-])c1 | i | 2.7
21 | CCNC(=S)Nc1ccccc1-c1ccccc1 | i | 0.03
22 | c1ccc(C[C@H]2CN=C(Nc3ccccc3)N2CCCC2CCCC2)cc1 | i | -0.14
23 | CCOc1ccc(CNC(=O)c2nnc(CS(=O)(=O)c3ccccc3)o2)cc1OC | i | -1.3
24 | CN1CCCN(C(=O)C2CCCCC2)CC1 | i | 1.2
25 | CCOc1cccc(NC(=O)C2CC(=O)N(C)C2)c1 (stereo not drawn) | i | -0.25
26 | Cc1ccc(S(=O)(=O)CCC(=O)OCC(=O)N2CC(=O)Nc3ccccc32)cc1 | i | 2.2
27 | Cc1ccc(C(=O)NNC(=O)C2CSC3(C)CCC(=O)N23)cc1 (stereo not drawn) | i | 0.07
28 | CCOC(=O)/C(C#N)=C\c1ccc(N2CCN(C)CC2)cc1 | i | 2.5
29 | COc1ccc(CCN2CC(C(=O)NCc3cccc4[nH]ccc34)CCC2=O)cc1 (stereo not drawn) | i | 0.05
30 | Cc1cc(C)nc(Nc2ncc(O)n2-c2ccccc2)n1 | i | 0.62
31 | O=C(Cc1ccccc1[N+](=O)[O-])OCC(=O)N1CCN(c2ccccc2)CC1 | i | -0.18
32 | CN1C(=O)C(C)(C)c2cc(S(=O)(=O)NCC3CCC(C(=O)NCc4ccc(F)cc4)CC3)ccc21 (stereo not drawn) | i | -1.9
33 | CCOC(=O)N1CCN(C(=O)COc2ccc([N+](=O)[O-])cc2)CC1 | i | 0.47
34 | CCn1cc(CN2CCC(C(=O)Nc3cccc(-c4cccc(F)c4)c3)CC2)cn1 | i | 0.05
35 | CCCCNC(=O)C1CCCN(S(=O)(=O)c2ccc(-n3cnnn3)cc2)C1 (stereo not drawn) | i | 0.13
36 | Cc1cccc(Oc2c(C=O)c3ccccc3n2C)c1 | -6.5* | -0.74*
37 | O=c1c(-c2ccco2)[n+]([O-])c2ccccc2n1OCc1ccccc1 | i | -1.3
38 | CC(C)c1csc(CN2CCCC(CCC(=O)NCc3ccccc3F)C2)n1 (stereo not drawn) | i | -2.3
39 | COc1ccc(OC)c(NC(=O)C2CCCCC2C(=O)O)c1 (stereo not drawn) | i | -0.07
40 | CN(c1ccc(C(=O)O)cc1)S(=O)(=O)c1ccc(Cl)cc1 | i | 1.2
41 | COc1cccc(NC(=O)CSc2nn3c(=O)c(C)nnc3s2)c1 | i | 0.63
42 | CCOc1cc(-c2cc(-c3ccc(C)cc3)nc(N)c2C#N)ccc1O | i | 0.56
43 | Cc1nn(Cc2ccccc2)c(=O)n1N(C)c1ncc(C(F)(F)F)cc1Cl | i | -1.6
44 | Cc1cnc(Sc2ncccc2[N+](=O)[O-])nc1 | i | -0.03
45 | COc1ccc(S(=O)(=O)N2CCCCC2)cc1NC(=O)CCNC(=O)c1ccc(Br)cc1 | i | -0.11
46 | CCCN(CCC)Cc1c(C(=O)N/N=C/C(C)=C\c2ccco2)nnn1-c1nonc1N | i | -0.11
47 | CC1(C)CC(=O)C(C=Nc2ccccc2)=C(O)C1 | i | -0.11
48 | N=c1oc2ccccc2cc1C(=O)NCc1ccccc1 | i | -1.9
49 | COc1ccc2nc(SCC(=O)NC3CCCC3)c(C)cc2c1 | i | -1.4
50 | O=C(CC1(C(F)(F)F)OCCO1)Nc1ccc2c(c1)OCO2 | i | 0.9

Following part:
No. | Structure | KCNQ2 block | KCNQ2 block baseline
51 | CS(=O)(=O)c1ccc2nc(NC(=O)CS(=O)(=O)Cc3ccccc3)sc2c1 | i | 0.31
52 | Cc1ccc2nc(N/N=C/c3ccccc3C#N)nc(-c3ccccc3)c2c1 | -6* | -0.91*
53 | COc1ccc2c(c1)C(SCC(=O)NCCc1ccccc1)CC(C)(C)O2 (stereo not drawn) | i | 0.01
54 | CC(=O)N1CCN(c2ccccc2NC(=O)COc2ccc(Cl)cc2Cl)CC1 | i | -0.67
55 | COC(=O)c1[nH]c2ccccc2c1NC(=O)CN1CCN(c2cccc(OC)c2)C(C)C1 (stereo not drawn) | i | 1.4
56 | CCSc1nc(C)cc(Oc2ccc(=O)n(C)n2)n1 | i | -0.6
57 | CCn1c(SCC(=O)Nc2cc(C)ccc2C)nc2c(c1=O)SC(C)C2 (stereo not drawn) | i | 1.2
58 | COC(=O)c1sc2nc3c(cc2c1N)CCCC3 | i | 0.36
59 | Cc1cc2c(cc(C(=O)OC(C(=O)NCc3ccco3)C(C)C)n2C)o1 (stereo not drawn) | i | 0.57
60 | CCN(CC)C(=O)CSc1nc2cccnc2n1-c1ccccc1OC | i | 0.87
61 | CCC(=O)Nc1ccc(NC(=O)CSc2nnc(-c3ccc(O)cc3)n2CC2CCCO2)cc1 (stereo not drawn) | i | 0.96
62 | CN1CCC(N(C)C(=O)c2cc(=O)c3ccccc3o2)CC1 | i | -0.01
63 | CCOc1ccc(NC(=O)CCNS(=O)(=O)c2ccc3c(c2)CCC(=O)N3)cc1 | i | 0.2
64 | CN(C)CC(=O)c1c[nH]c2ccccc12 | i | 0.16
65 | COC(=O)c1nn(-c2ccc(OC)cc2)c(=O)cc1NN | i | -0.62
66 | COCCNC(=O)c1cccc(OC2CCN(Cc3ccc(C(C)C)cc3)CC2)c1 | i | -0.41
67 | O=C(CN1CCCCCC1)Nc1ccccc1F | i | 0.95
68 | O=C(Nc1cccc(C(F)(F)F)c1)/C(=C/c1ccco1)NC(=O)c1cccs1 | i | 0.3
69 | COc1ccc(N2C(=O)C3C(C2=O)C(C(=O)c2ccc(Cl)cc2)N2CCCC32)cc1 (stereo not drawn) | i | -1.2
70 | O=C(c1ccco1)N1CCN(C(=S)Nc2cccc([N+](=O)[O-])c2)CC1 | i | -1.7
71 | CCc1nc(Sc2nc(C)cc(C)n2)c2oc3ccccc3c2n1 | i | -0.03
72 | Cc1nc(N2CCCC2)c2ccsc2n1 | i | -0.29
73 | Cc1ccc(-c2nn(-c3ccccc3)cc2/C=N/NS(=O)(=O)c2ccccc2)cc1 | i | 0.89
74 | CCc1cc(Cl)c(OC)c(C(=O)NC[C@@H]2CCCN2CC)c1O | i | 1.3
75 | Nc1nc2c(s1)CCc1ccccc1-2 | i | 2.7
76 | O=C(COc1ccc2ccccc2c1Br)Nn1cnnc1 | i | 2.3
77 | Cc1ccc(S(=O)(=O)N2CCC(C(=O)Nc3ccc(S(=O)(=O)N4CCCC4)cc3)CC2)cc1C | i | 2.2
78 | Cc1ccc(C(=O)N2CCCC(C(=O)c3ccc(Cl)cc3C)C2)cn1 (stereo not drawn) | i | -2.3
79 | COc1ccc(OCC(=O)NNC(=O)C2CCCO2)cc1 (stereo not drawn) | i | 0.82
80 | CCOc1ccccc1NC(=O)COC(=O)CN(C)S(=O)(=O)c1ccc(C)cc1 | i | 1.2
81 | COc1ccc(N2CCN(S(=O)(=O)c3cc(C)ccc3OC)CC2)cc1 | i | -0.66
82 | CCOc1cc(C(=O)Nc2cccnc2)cc(OCC)c1OCC | i | 0.22
83 | COc1ccc(C(=O)N(CCc2ccccc2)Cc2ccccc2)cc1S(=O)(=O)N1CCOCC1 | i | 1.4
84 | O=C(O/N=C1\CCS(=O)(=O)c2sccc21)C1CC1 | i | -0.97
85 | COc1ccc(NC(=S)NC(C)C(c2ccccc2)N2CCOCC2)cc1 (stereo not drawn) | i | 1.1
86 | CN(C)c1ccc(/C=N/N(CCC(=O)NC(C)(C)C)C2=NS(=O)(=O)c3ccccc32)cc1 | i | -1.1
87 | Clc1ccc(Cl)c(-c2nn3c(Cn4cnc5ccccc54)nnc3s2)c1 | i | 0.03
88 | COc1ccc(Nc2nc(C(=O)N3CCc4cc(OC)c(OC)cc4C3)cs2)cc1 | i | 1.4
89 | C=CCN1C(=O)C2C3CC(=O)C(c4ccccc43)C2C1=O (stereo not drawn) | i | -3
90 | COc1cccc(C(=O)NC(c2ccccc2)C2CCCC2)c1 (stereo not drawn) | i | 0.79
91 | CCSc1nnc(CSc2ncccn2)n1C | i | -1.7
92 | CCCCN(C)S(=O)(=O)c1ccc(C(=O)Nc2nnc(C3=COCCO3)o2)cc1 | i | -1
93 | CCc1cc(-c2n[nH]c(=S)n2CC)cs1 | i | 0.64
94 | Cc1cc(C)nc(CCNC(=O)c2cc(COc3ccc(F)cc3Cl)on2)n1 | i | 2.1
95 | COc1ccc(-c2noc(CCC(=O)N3CCN(Cc4ccccc4)CC3)n2)cc1 | i | -0.03
96 | O=C(Nc1ccc(S(=O)(=O)Nc2ccc(F)cc2)cc1)c1ccc(CN2CCOCC2)cc1 | i | -0.81
97 | COc1ccc(CC(=O)Oc2ccc(F)c(F)c2)cc1S(=O)(=O)N1CCOCC1 | i | 0.48
98 | COc1ccc(C(=O)NCc2ccc3c(c2)cc(C)n3C)cc1 | i | 0.05
99 | O=C(O)CNC(=O)/C(=C\c1cccc([N+](=O)[O-])c1)NC(=O)c1ccco1 | i | -2.1
100 | C=C(C)COc1ccc(-c2n[nH]c(C)c2-c2ccc(Br)cc2)c(O)c1 | i | -0.77

Next section
No. | Structure | KCNQ2 block | KCNQ2 block baseline
101 | CC(C)CCn1nc(C(=O)Nc2nc3c(s2)CCCC3)c2ccccc2c1=O | i | 0.01
102 | Cc1ccc(S(=O)(=O)N(C)c2ccc(C(=O)NCCc3ccccc3)cc2)cc1 | i | -1.5
103 | CCOC(=O)CC(NC(=O)C1c2ccccc2Oc2ccccc21)c1ccc(C)cc1 (stereo not drawn) | i | 1.5
104 | C/C(=N/NC(=O)c1ccccc1)C1=C(O)CC(C)(C)CC1=O | i | -0.97
105 | Cc1ccc(C)c(NS(=O)(=O)c2ccc(OCC(=O)NCc3cccnc3)cc2)c1 | i | -0.17
106 | COc1ccccc1C1c2[nH]c3ccccc3c2CCN1Cc1ccc(NC(C)=O)s1 (stereo not drawn) | i | 1.3
107 | Oc1ccccc1/C=N/NC1=NCCCCC1 | i | 0.88
108 | CN1C(C(=O)Nc2ccccn2)=C(O)c2ccccc2S1(=O)=O | i | 3
109 | O=C(CN(Cc1ccccc1F)C(=O)c1ccco1)NCc1ccc(F)cc1 | i | -1.9
110 | Cc1cc(NC(=O)CSc2nc3c(cc2C#N)CCC3)no1 | i | -1.5
111 | CCc1cc(=O)oc2cc(OC(C)C(=O)O)c(Cl)cc12 (stereo not drawn) | i | 0.41
112 | CCOc1ccccc1N(CC(=O)N1CCOCC1)S(=O)(=O)c1ccc(SC)cc1 | i | 0.78
113 | C=CCn1c(CC#N)nnc1N1CCOCC1 | i | -1.1
114 | Cc1cc(NC(=O)c2cccc(S(=O)(=O)N3c4ccccc4CC3C)c2)no1 (stereo not drawn) | i | -1.1
115 | O=C(Nc1ccc(SC(F)F)cc1)c1cccc2nc3ccccc3nc12 | i | 0.1
116 | Cc1onc(-c2ccccc2Cl)c1C(=O)NNC(=O)C1CCN(Cc2ccccc2)CC1 | i | -0.17
117 | COc1ccc(CNCCC(c2ccc(OC(C)C)cc2)C(C)C)cc1OC (stereo not drawn) | i | -0.52
118 | CCS(=O)(=O)N1CCC(C(=O)NCCc2ccc(OC)c(OC)c2)CC1 | i | 0.07

One compound at a time, from the list above.
Cc1cc(NC(=O)c2cccc(S(=O)(=O)N3c4ccccc4CC3C)c2)no1 (stereo not drawn) is entered as KCNQ2 block: i; KCNQ2 block baseline: -1.1
O=C(Nc1ccc(SC(F)F)cc1)c1cccc2nc3ccccc3nc12 is entered as KCNQ2 block: i; KCNQ2 block baseline: 0.1
Cc1onc(-c2ccccc2Cl)c1C(=O)NNC(=O)C1CCN(Cc2ccccc2)CC1 is entered as KCNQ2 block: i; KCNQ2 block baseline: -0.17
